Bioassay records deposited in PubChem BioAssay by several laboratories.
T cruzi repl: inhibitors of intracellular T. cruzi growth, primary screen, luminescence, NIH3T3 host cells | T. cruzi beta-gal in NIH3T3, 90 h | inhibition, % (no concentration beside the values) | hit rate 1.4% among 300,000 | AID 1885, 2009;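 active means mean inhibition across valid replicates above about 55%, limit read from the data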;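 further: signal also drops with host cell toxicity which is not excluded here; 0% = plate median of DMSO wells and 100% = zero luminescence signal; higher percent means less beta-gal luminescence so fewer parasites; stock transfer was 50 nL into about 50 µL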
Calb FLC: C. albicans growth inhibition with fluconazole, primary screen, CaCi-2 strain, Alamar Blue fluorescence; C. albicans CaCi-2 (fluconazole-resistant clinical isolate) + fluconazole, 48 h; growth inhibition, % (no concentration beside the values); hit rate 0.57% among 300,000; AID 1979, 2009;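 active means most replicates above 75%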;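 further: all wells also contain fluconazole at 8 µg/ml as a sub-toxic cotreatment; 0% = median of DMSO wells and 100% = median of geldanamycin control wells; wells of about 8 µL received 7.5 nL stock; the first replicate is given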
ALR H2O2 inh: inhibitors of human ALR sulfhydryl oxidase, primary screen, biochemical, H2O2 detection, HRP-luminol luminescence, single point. FAD-linked sulfhydryl oxidase ALR (Homo sapiens), P55789. purified ALR, DTT oxidation. inhibition, % (test concentration not listed). hit rate 3.8% among 290,000;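 active means mean and each replicate at 75% or more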;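 further: stock transfer was 7.5 nL into about 7.5 µL; 0% = neutral wells and 100% = wells with inactivated enzyme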
Target sequence (P55789 whole entry, looked up): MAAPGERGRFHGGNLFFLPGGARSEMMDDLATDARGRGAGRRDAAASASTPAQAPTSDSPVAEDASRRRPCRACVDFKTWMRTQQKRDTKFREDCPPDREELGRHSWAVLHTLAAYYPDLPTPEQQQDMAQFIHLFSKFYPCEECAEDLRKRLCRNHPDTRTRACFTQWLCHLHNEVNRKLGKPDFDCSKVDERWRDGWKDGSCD
Ecoli rRNA inh: reduced GFP signal of wild-type E. coli, primary screen, bacterial rRNA inhibitor project, GFP/RFP fluorescence, OD600, single point | E. coli WT GFP vs humanized-ribosome RFP mutants, 24 h; hits give low values; DMSO median 0, no signal -100 | GFP signal change (wild-type ribosome), % (no concentration beside the values) | AID 720706, 2013 | hit rate 1.6% among 350,000;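 active means significant combined selectivity score with lowered wild-type GFP, culture density cut under 30%, mutant RFP and density less affected; inactive means any of these conditions unmet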; further: one replicate is shown; some compounds called inactive have numbers as strong as hits
A1 inh: caspase 3/7 activation in MEF A1-2A-BIM cells, primary screen, A1 inhibitor project, cell-based, luminescence, HTS; Caspase-Glo 3/7 luminescence, 3 h; percent of clofoctol response, vehicle zero; caspase activation, % (concentration not given with the values); hit rate 0.066% among 330,000; AID 2462, 2010;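 active means over half of replicate activation scores above 10%, or exactly half above 10 with the replicate mean above 10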;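 further: wells of about 30 µL received 50 nL stock; many hits fall short of the cut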
Beta apoptosis: inhibitors of cytokine-induced beta cell apoptosis, primary screen, luminescence. AID 435005, 2010. protection from apoptosis, % (test concentration not listed). hit rate 0.8% among 300,000. INS-1E cytokine-induced death, ATP luminescence, 48 h; percent of positive-control rescue, neutral wells zero;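 active means all replicates at 75% or more, or half of them and the mean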;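 further: 0% = cytokine-treated negative control wells and 100% = positive control rescue; higher means more ATP so stronger rescue from cytokine killing; wells of about 40 µL received 100 nL stock; the first replicate is given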
Beta2AR agonist: beta2AR agonists driving receptor internalization, primary screen, cell-based, FAP fluorogen, flow cytometry | response, % (concentration not given with the values) | hit rate 0.43% among 340,000 | Beta-2 adrenergic receptor (Homo sapiens), P07550 | Am2.2-beta2AR cells; reference of the scale not given here;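 active means response above a set limit, near 3 SD of response in nonfluorescent compounds, cut at about 42% in these data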;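 further: stock transfer was 100 nL into about 11 µL; a reference agonist was the positive control; negative values mostly stem from fluorescent compounds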
Target sequence (P07550 whole entry, looked up): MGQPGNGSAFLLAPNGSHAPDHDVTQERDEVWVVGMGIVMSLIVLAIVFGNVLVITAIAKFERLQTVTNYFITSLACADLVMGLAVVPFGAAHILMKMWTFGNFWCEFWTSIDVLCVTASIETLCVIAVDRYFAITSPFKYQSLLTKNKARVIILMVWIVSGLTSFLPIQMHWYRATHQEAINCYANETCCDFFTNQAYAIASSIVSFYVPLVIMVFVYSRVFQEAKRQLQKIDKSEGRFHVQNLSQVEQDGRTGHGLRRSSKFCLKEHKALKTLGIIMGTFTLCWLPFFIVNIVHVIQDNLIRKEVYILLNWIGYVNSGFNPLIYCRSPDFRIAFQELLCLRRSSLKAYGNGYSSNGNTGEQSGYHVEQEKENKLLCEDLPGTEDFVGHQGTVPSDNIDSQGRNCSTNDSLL
LANA-H2B inh: blockers of LANA interaction with H2A/H2B – biochemical, FP readout, HTS, primary screen; Protein LANA1 (Human herpesvirus 8 type P (isolate GK18)), Q9QR71; cell-free LANA-H2A/H2B peptide, fluorescence polarization; inhibition, % (no concentration beside the values); hit rate 0.6% among 320,000; AID 2629, 2010; in the data active means inhibition mostly above about 10%, no sharp cut-off; inactive means mostly below about 6.7%;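 further: stock transfer was 7.5 nL into about 10 µL; 0% = median of vehicle wells and 100% = median of positive control wells; one replicate is shown; the record names a cut of 25% in any replicate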
Ecoli rRNA inh OD600: second read-out of Ecoli rRNA inh, no call of its own (marks repeat the call); OD600 change, %; measured here: OD600 growth;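 optical density of the mix in the first replicate; 0 = DMSO median and -100 = no signal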
Ecoli rRNA inh RFP: also measured in Ecoli rRNA inh; calls as there; RFP signal change, %; measured here: RFP humanized mutant strains;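 first replicate; 0 = DMSO median and -100 = no signal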
* hit, by the source's call; nt = not tested or not shown; & = joins results of further samples. Only part of the results is shown (hit frequency here may not be typical).

SMILES	T cruzi repl	Calb FLC	ALR H2O2 inh	Ecoli rRNA inh	Ecoli rRNA inh OD600	Ecoli rRNA inh RFP	A1 inh	Beta apoptosis	Beta2AR agonist	LANA-H2B inh
CCN1CCc2nc3sc(C(=O)Nc4cccnc4Cl)c(N)c3cc2C1	-9	1	-81	-1	1	-1.2	nt	nt	18	nt
Cc1c(NC(=O)C(=O)/C=C(/O)c2ccccc2)c(=O)n(-c2ccccc2)n1C	-14	-1	29	9	14	-7.5	-0.5	-4	-1	0.3
Cc1ccc(C(=O)NNC(=O)CSc2nnc(CNc3ccc(F)cc3)n2C)cc1	-10	4	-6	0	6	1.5	-1.3	3	nt	-3.0
O=S(=O)(c1ccccc1)N1CCN(CCO)CC1	2	3	-12	17	13	2.8	-0.6	-7	2	0.0
CCOC(=O)N1CCC(NS(=O)(=O)c2ccc3c(c2)C(C)(C)C(=O)N3C)CC1	5	-2	-14	nt	nt	nt	-1.1	-3	1	3.1
CCC(CC)C(=O)Nc1c2cnn(-c3ccccc3)c2nc(=O)n1-c1ccccc1	-10	2	-1	nt	nt	nt	-0.8	1	-4	3.9
Cc1cc2cc(CN(Cc3cccs3)Cc3nnnn3CC3CCCO3)c(=O)[nH]c2cc1C (stereo not drawn)	7	43	-7	-7	-5	-2.9	1.1	-30	6	-2.8
CCCn1c2ccccc2c2cnn(CC(=O)NCCOC)c(=O)c21	-2	-7	-3	7	7	0.3	1.7	1	5	-0.2
CC1CCCCN1S(=O)(=O)c1ccc(C(=O)N(CCCN(C)C)c2nc3ccc(Br)cc3s2)cc1 (stereo not drawn)	26	-2	-5	-41	-70	5.1	1.6	4	25	-0.8
C[C@@]12CCC=C[C@H]1[C@H](c1ccc(C(F)(F)F)cc1)N(Cc1ccccc1)C2=O	20	-2	-30	3	-2	4.0	-1.0	2	1	-4.8
OCCN(CC#CC(O)(c1ccccc1)c1ccccc1)CCO	-7	-6	-25	8	6	0.2	0.1	-4	4	-0.3
CCn1c2ccccc2c2cc(CN3CCN(Cc4cc(OC)ccc4O)CC3)ccc21	72*	-34	-2	-9	-4	4.4	0.1	-11	9	-2.5
COC(=O)c1cc2ccccc2oc1=O	-19	-15	-5	nt	nt	nt	0.2	-2	1	6.8
O=C(Nc1ccccn1)c1onc2c1CCCC2	-13	-36	2	nt	nt	nt	-9.4	14	-27	0.4
CC(=O)c1cccc(NC(=O)Nc2csc3c2CCCC3)c1	14	11	-18	-12	-6	-4.0	0.1	3	-5	-3.1
Cc1cc2c(SCC(=O)NC3CCCC3)ncnc2s1	-4	15	-1	-1	4	1.8	-0.1	4	-7	2.8
Cc1ccc(N(CC(=O)NC2CCCC2)C(=O)c2ccc(C)s2)cc1	-3	-18	7	-6	-14	-3.0	0.2	-2	1	-3.4
CC(=O)c1cccc(NC(=O)C2(c3ccccc3)CC2(Cl)Cl)c1 (stereo not drawn)	-2	9	-1	-2	2	-1.9	-0.9	-1	-6	5.3
O=C1CC(=O)C(n2cncn2)C(c2cccc(Cl)c2)C1 (stereo not drawn)	-9	-2	-2	nt	nt	nt	0.2	3	-1	16*
Cc1ccc2nc(NC(=O)C3CCN(c4ncnc5sc(C)c(C)c45)CC3)sc2c1	50	-3	-3	nt	nt	nt	0.2	3	19	-0.6
O=C(CN1CCN(c2ccc(F)cc2)CC1)Nc1ccc2c(c1)OCCO2	-4	1	31	-2	-8	3.0	-0.1	-2	6	1.3
CCN(CC)C(=O)C1CCN(S(=O)(=O)c2cccc3nonc23)CC1	-13	-3	-3	nt	nt	nt	0.9	-4	-1	-3.1
CCN(CC)CCNC(=O)c1ccc(Cl)c(S(=O)(=O)Nc2ccc(Cl)cc2)c1	-10	-18	2	4	6	2.4	1.0	nt	7&-1	-2.8
CCCCC(=O)NS(=O)(=O)c1ccc(N=NN2CCCCC2)cc1	-9	1	-4	18	-2	4.6	1.2	4	-3	8.0
CC1(c2ccccc2Cl)NC(=O)N(CC(=O)Nc2ccc3c(c2)OCO3)C1=O (stereo not drawn)	-14	-6	-18	-10	-14	-6.5	0.7	1	0	-4.4
Cc1ccc(NC(=O)CN2C(=O)CC(C)S(=O)(=O)c3ccccc32)cc1 (stereo not drawn)	-2	-1	-4	-3	-4	-2.9	-1.3	-2	-5	-0.3
CN1C(=O)N(CN2CCCCC2)C2C1N(C)C(=O)N2CN1CCCCC1 (stereo not drawn)	-19	13	-10	nt	nt	nt	0.3	0	-4	2.4
O=C(Nc1ccc(NC(=O)c2ccc3c(c2)OCCO3)cc1)c1ccccc1	24	-9	-2	8	24	0.4	-0.8	3	4	-4.2
COc1cc2c(cc1OC)CN(CC(=O)Nc1ccccc1C(=O)NC1CC1)CC2	nt	nt	-1	-7	3	-5.7	0.3	-1	-7	-1.7
COc1ccc2c(c1)CCc1c(C(=O)NCC(C)C)noc1-2	12	9	nt	-7	0	-0.9	-5.3	4	2	-0.4
CNC(=S)NNC(=O)c1sc2cc(C(F)(F)F)cnc2c1-c1cccnc1	2	-8	88*	-18	-17	-4.0	-0.3	nt	-6	1.6
COc1ccc(C2CC(c3ccccc3)=NN2c2ccc(S(N)(=O)=O)cc2)cc1 (stereo not drawn)	57*	53	-18	-19	-21	-4.4	1.3	6	-1	-1.7
O=C(NC(=S)N1CCN(C/C=C/c2ccccc2)CC1)c1ccc(F)cc1	-48	-1	1	nt	nt	nt	0.4	nt	4	-3.3
Cc1ccc(NC(=O)CN2C(=O)S/C(=C\c3cccn3C)C2=O)cc1	0	8	-7	27	11	5.4	0.7	7	7	8.3
COc1ccc(C(C)=O)cc1COC(=O)CSC(C)C(=O)Nc1cc(C)on1 (stereo not drawn)	-28	-7	-14	9	3	4.2	0.4	2	12	3.4
COc1ccc(NS(=O)(=O)c2ccc(NS(=O)(=O)c3ccc(SC)cc3)cc2)c(OC)c1	2	2	0	nt	nt	nt	0.3	1	6	2.9

The final 2 records of the part above open the next one.
SMILES	T cruzi repl	Calb FLC	ALR H2O2 inh	Ecoli rRNA inh	Ecoli rRNA inh OD600	Ecoli rRNA inh RFP	A1 inh	Beta apoptosis	Beta2AR agonist	LANA-H2B inh
COc1ccc(C(C)=O)cc1COC(=O)CSC(C)C(=O)Nc1cc(C)on1 (stereo not drawn)	-28	-7	-14	9	3	4.2	0.4	2	12	3.4
COc1ccc(NS(=O)(=O)c2ccc(NS(=O)(=O)c3ccc(SC)cc3)cc2)c(OC)c1	2	2	0	nt	nt	nt	0.3	1	6	2.9
O=C(O)c1ccc(Oc2ccc(S(=O)(=O)c3ccc(C(=O)O)c(C(=O)O)c3)cc2)cc1	-13	-6	-35	20	22	0.6	0.2	-1	0	4.8
COc1ccc(Cl)cc1C(=O)N1CCN(Cc2ccc3c(c2)OCO3)CC1	7	-14	-19	6	-2	2.1	2.6	-4	2	14*
CCOCCCn1c(SCc2nc3sc(C(=O)O)c(C)c3c(=O)[nH]2)nnc1-c1ccc(Cl)cc1	-4	4	3	11	8	4.0	0.1	5	4	0.2
Cc1ccc(SCc2ccc(C(=O)Nc3cccc([N+](=O)[O-])c3C)cc2)cc1	60*	-4	-1	30	10	0.0	-0.7	-3	-5	-5.5
Cc1nn(C)c(C(=O)NNC(=O)NC2CCCCC2)c1Cl	-2	-7	nt	9	12	1.2	nt	nt	5	nt
CCOc1cc(NC(=S)NCc2ccco2)c(OCC)cc1NC(=O)c1ccco1	-22	-8	-20	-2	1	-0.6	1.7	1	-14	-2.1
O=S(=O)(Cc1ccc(Cl)cc1)c1ccccc1-c1nnc(-c2ccccc2)o1	-24	-3	2	nt	nt	nt	-0.1	8	17	6.5
Cc1nn(C(C)C(=O)O)c(=O)c2c1sc1ccccc12 (stereo not drawn)	-18	18	nt	nt	nt	nt	-0.3	nt	-6	1.0
COc1ccc(NC(=O)c2ccco2)cc1NC(=O)c1c(F)c(F)c(OC)c(F)c1F	-2	-2	-5	nt	nt	nt	-0.1	-2	-18	-0.2
COc1ccc(OCC(O)CNC(C)c2ccccc2)cc1 (stereo not drawn)	12	2	-2	-3	2	0.3	-0.1	-2	-9	0.3
CCOc1cc(C2C3=C(CC(C)(C)CC3=O)N(C)C3=C2C(=O)CC(C)(C)C3)ccc1O	-8	-6	-10	9	9	2.6	0.6	-9	-5	-3.0
COc1ccc(-n2nc3c(c2NC(=O)COc2ccccc2)CS(=O)(=O)C3)cc1	-1	5	-5	8	0	-0.2	-0.3	-10	-1	1.0
COc1ccc(NC(=O)c2cc(-c3ccccn3)nc3c(C)cc(C)cc23)c(C)c1	3	-5	-2	6	7	0.0	0.4	-3	9	-11
CCc1ccc(NC(=S)N2CCC(NC(=O)C3CCCCC3)CC2)cc1	-29	-1	2	8	7	0.6	-0.3	-2	-2	-8.3
CCC(=O)n1nc(NCc2ccccc2OC)nc1NCc1ccccc1OC	3	5	-3	nt	nt	nt	0.2	9	-5	-4.2
O=C(Nc1nnc(CCN2CCOCC2)s1)C1CCCCC1	-20	-10	-3	nt	nt	nt	0.3	1	-16	1.2
CCOC(=O)c1c(NC(=S)NC(=O)c2ccc(Cn3cc(Cl)cn3)o2)sc2c1CCCCC2	9	23	-10	nt	nt	nt	-0.3	-1	-6	1.7
Cc1cc(Nc2ccccc2)nn1C(=O)c1ccc([N+](=O)[O-])cc1	-17	5	18	1	8	0.1	-1.3	1	8	-5.0
CCOc1ccccc1NC1=NCC(=O)N1Cc1ccc(F)cc1	-4	1	-1	-21	-3	6.6	-1.0	-4	-4	0.3
Cc1cnc(C(=O)N2CCN(S(=O)(=O)c3cccc(Br)c3)CC2)cn1	nt	nt	-3	1	3	0.5	-1.6	-3	-7	1.1
S=C(NCc1ccccn1)Nc1ccccc1Cl	-2	-1	2	nt	nt	nt	-0.8	-3	-6	0.1
CC(C)(C)C(=O)Nc1ccc(-c2nc3ccccc3c(=O)o2)cc1	-11	nt	11	-1	3	-0.3	-2.4	-8	-6	11
O=C(NN1C(=O)c2ccccc2NC1c1ccoc1)c1ccc([N+](=O)[O-])cc1 (stereo not drawn)	-4	12	nt	6	18	0.2	0.2	-5	3	0.9
COc1ccc2nc(NC(=O)CCN3C(=O)c4ccccc4C3=O)sc2c1	-9	-4	-9	nt	nt	nt	-0.2	4	7	3.7
COc1ccc(S(=O)(=O)NCCc2cn3nc(C)c(C)nc3n2)cc1C	-5	-1	-1	3	7	0.9	-0.4	1	2	2.4
O=C(Nc1ccc(C(F)(F)F)cc1)c1csc(-c2ccncc2)n1	25	-4	-12	-3	4	1.3	0.1	-2	1	-0.1
CC(=O)c1c(C)[nH]c(C(=O)OCC(=O)c2c(N)n(C)c(=O)n(C)c2=O)c1C	-10	2	-15	nt	nt	nt	1.0	-12	nt	-1.9
